# Bioassay records: PubChem, ICCB-Longwood Screening Facility, Harvard Medical School
# BmaI1: BmaI1 acyl-homoserine lactone synthase inhibition – biochemical, fluorescence intensity, with counterscreen (AID 720554). BmaI1 enzyme assay, fluorescence intensity; hits give high values; test concentration not given here; a few actives read low; strong numbers were not always called active. inhibition, %. 0.4% of 12,000 active;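 active = both replicates within 2 robust z-scores of the inhibited control and a quiet counterscreen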;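 note: 0% = uninhibited enzyme and 100% = inhibited control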
# BmaI1 counterscreen: also measured in BmaI1; calls as there; inhibition, %; measured here: counterscreen; design of the counterscreen not given here;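 first of two replicates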
# * = called active by the depositor. Only part of the results is shown; count on the stated rates, not on these rows.
SMILES,BmaI1,BmaI1 counterscreen
COc1ccc(CN(C)C(=O)c2cccc(C)c2)cc1OC,6,9
COc1ccc(-c2nnc(SCC(=O)N3CCC(c4ccccc4)=N3)n2CC2CCCO2)cc1 (stereo not drawn),24,9
O=CN1CCN(C(=O)C(Cc2c[nH]c3ccccc23)NC(=O)c2cccs2)CC1 (stereo not drawn),11,12
COc1cn(-c2ccccc2)nc1C(=O)NCc1ccc(C)cc1,12,-2
CC1CN(C(=O)COC(=O)c2cccs2)CC(C)O1 (stereo not drawn),8,2
Nc1nc2c(ncn2COC(CO)CO)c(=O)[nH]1,-9,2
CC(=O)NS(=O)(=O)c1ccc(N)cc1,0,10
NC(=O)c1ccc(-c2ccccc2)o1,20,40
O=C(COc1ccccc1/C=C1\N=C2CCCCCN2C1=O)N1CCCC1,-11,-10
C/C(CCc1ccc2c(c1)OCO2)=N\NC(=O)c1cc2c3ccccc3n(C)c2s1,18,38
CC(=O)Nc1ccc(NC(=O)C(C)OC(=O)c2ccc(S(=O)(=O)N3CCCCC3)cc2)cc1 (stereo not drawn),12,7
CCCC(C(=O)NC1=NCCS1)c1ccccc1 (stereo not drawn),12,15
O=C(Cc1c[nH]c2ccccc12)Nc1ccc(F)cc1,15,9
NCCCOCC1CC1,5,-4
COc1ccc(C(=O)N2CCCC2)cc1S(=O)(=O)N1CCCc2ccccc21,4,2
Cc1nn(-c2ccccc2)c2sc(C(=O)NC3CCS(=O)(=O)C3)cc12 (stereo not drawn),13,2
CC1CCCCC1NC(=O)COc1ncnc2sccc12 (stereo not drawn),16,13
CCCCN1C(=O)c2ccc(C(=O)C(C#N)c3nc4ccccc4[nH]3)cc2C1=O (stereo not drawn),11,9
Cc1cc(C(=O)NCc2nnc3ccccn23)c(C)o1,10,10
N#CC1(NC(=O)CSc2nnc(-c3cccs3)n2C2CC2)CCCCC1,25,8
CN1CCN(c2ccc(N)cc2)CC1,102,64
CCC1CSC(=Nc2ccc(Cl)c(Cl)c2)N1C(=O)CCc1c(C)[nH]c(=O)c(C#N)c1C (stereo not drawn),6,2
O=S(=O)(NC1CCCC1)c1ccccc1Cl,-6,-6
CCc1ccc(C(=O)CSc2nnc3oc4ccc(S(=O)(=O)N(C)C)cc4n23)cc1,9,5
CCOc1ccc(OCCCC(=O)NC2=NCCS2)cc1,2,-2
O=C(CN1CCN(c2ccccc2Cl)CC1)N1CCNC1=O,13,2
CC(=O)Nc1ccc(SCC(=O)N2N=C(c3ccc(Cl)cc3)CC2c2ccco2)cc1 (stereo not drawn),16,4
CS(=O)(=O)c1ccc(Cl)c(NC(=O)CN2CCN(Cc3ccc(Cl)s3)CC2)c1,20,2
CN(C)S(=O)(=O)c1cccc(COC(=O)c2cnccn2)c1,-16,0
Cc1nn(-c2ccccc2)c2c1CC1(C(=O)NC(=O)c3ccccc31)C1CCCN21 (stereo not drawn),22,8
CC(=O)N1CCN(C(=O)c2cccc(S(=O)(=O)N(C)C(C)C)c2)CC1,-2,-4
COc1cc(C#N)ccc1OCC(=O)Nc1cccc2nsnc12,15,-1
COc1ccc(N(Cc2nc(N)nc(N)n2)S(=O)(=O)c2cc(C)ccc2C)cc1,7,-5
CN(C)C(=O)CSc1nnc2c(Cl)cc(Cl)cn12,8,-2
CN(Cc1ccccc1)C(=O)CSc1nnc(-c2ccccc2F)n1N,4,6
Cc1ccc(NC(=O)NC(=O)Cn2ccsc2=N)c(C)c1,-2,-8
C=CCn1c(-c2ccncc2)nn(CN2CCCC(C(=O)OCC)C2)c1=S (stereo not drawn),64,48
COC(CNC(=O)c1ccc2c(c1)C(=O)N(CCc1ccccc1)C2=O)OC,10,10
Cc1ccc(/C=C/C(=O)Nc2ccc(-c3nnc4n3CCCCC4)cc2)o1,28,2
CCN(CC)S(=O)(=O)c1ccc2oc(SCc3cn4ccsc4n3)nc2c1,30,2

# Five entries from above in another layout.
# Values run as follows: BmaI1 | BmaI1 counterscreen
CN(C)S(=O)(=O)c1cccc(COC(=O)c2cnccn2)c1
  -16 | 0
Cc1nn(-c2ccccc2)c2c1CC1(C(=O)NC(=O)c3ccccc31)C1CCCN21 (stereo not drawn)
  22 | 8
CC(=O)N1CCN(C(=O)c2cccc(S(=O)(=O)N(C)C(C)C)c2)CC1
  -2 | -4
COc1cc(C#N)ccc1OCC(=O)Nc1cccc2nsnc12
  15 | -1
COc1ccc(N(Cc2nc(N)nc(N)n2)S(=O)(=O)c2cc(C)ccc2C)cc1
  7 | -5

# Later entries
SMILES,BmaI1,BmaI1 counterscreen
O=C(C1CCNCC1)N1CCCCC1,12,10
N#C/C(=C(/O)CN1CCN(Cc2ccccc2)CC1)c1nc2ccccc2c(=O)[nH]1,18,0
COc1ccccc1N(C)S(=O)(=O)c1ccc(C(=O)Nc2ccccc2N2CCN(C)CC2)cc1,5,-6
CCOC(=O)c1c(C)[nH]c(C)c1C(=O)COC(=O)c1ccncc1,14,0
COCC(C)n1c(COc2ccccc2F)nnc1SCC(=O)Nc1nc(C)cs1 (stereo not drawn),6,0
CCc1ccccc1Nc1nc(N)nc(CSCC(=O)c2cc(C)n(C)c2C)n1,2,-4
CC(C)(C)NC(=O)CCc1nc2ccccc2s1,1,-2
CC1(C)CC(=O)C=C(NNC(=O)c2cccnc2)C1,47,0
O=C(CC1C(=O)N2CCNC2=C1C(=O)c1ccc(Cl)cc1)Nc1ccccc1 (stereo not drawn),6,-8
COc1cccc(NC(=O)C(c2ccccc2)N2CC(C)OC(C)C2)c1 (stereo not drawn),10,0
Cc1nn(-c2ccccc2)c2nc(-c3ccccc3)cc(C(=O)NCc3ccco3)c12,4,-3
COc1cc(C(=O)CSc2cccc[n+]2[O-])cc(OC)c1OC,87*,6.5*
Cc1ccc(CN(C)C(=O)CSc2nc(N)cc(N)n2)cc1,14,0
CN1C(=O)c2ccccc2N2C(=O)CCC12C(=O)O (stereo not drawn),6,1
O=C(c1cncc(Br)c1)N(c1nccs1)C1CCCCC1,16,14
O=C1N=C(O)CN1N=Cc1ccc(-c2ccc([N+](=O)[O-])cc2)o1,-2,13
O=C1CCN(C(=O)c2ccc3ccccc3n2)CC1,6,6
COc1ccccc1OCCNC(=O)c1ccc(S(C)(=O)=O)cc1,10,10
CNC(=S)N1CCc2ccccc21,6,5
O=C(OCc1nnc(-c2ccc(Cl)cc2)o1)C1=NN(c2ccccc2)C(=O)CC1,12,5

# A different layout for some results above:
molecule | BmaI1 | BmaI1 counterscreen
COc1ccc(C(=O)N2CCCC2)cc1S(=O)(=O)N1CCCc2ccccc21 | 4 | 2
Cc1nn(-c2ccccc2)c2sc(C(=O)NC3CCS(=O)(=O)C3)cc12 (stereo not drawn) | 13 | 2
CC1CCCCC1NC(=O)COc1ncnc2sccc12 (stereo not drawn) | 16 | 13
CCCCN1C(=O)c2ccc(C(=O)C(C#N)c3nc4ccccc4[nH]3)cc2C1=O (stereo not drawn) | 11 | 9
Cc1cc(C(=O)NCc2nnc3ccccn23)c(C)o1 | 10 | 10
N#CC1(NC(=O)CSc2nnc(-c3cccs3)n2C2CC2)CCCCC1 | 25 | 8
CN1CCN(c2ccc(N)cc2)CC1 | 102 | 64
CCC1CSC(=Nc2ccc(Cl)c(Cl)c2)N1C(=O)CCc1c(C)[nH]c(=O)c(C#N)c1C (stereo not drawn) | 6 | 2
O=S(=O)(NC1CCCC1)c1ccccc1Cl | -6 | -6
CCc1ccc(C(=O)CSc2nnc3oc4ccc(S(=O)(=O)N(C)C)cc4n23)cc1 | 9 | 5
CCOc1ccc(OCCCC(=O)NC2=NCCS2)cc1 | 2 | -2
O=C(CN1CCN(c2ccccc2Cl)CC1)N1CCNC1=O | 13 | 2
CC(=O)Nc1ccc(SCC(=O)N2N=C(c3ccc(Cl)cc3)CC2c2ccco2)cc1 (stereo not drawn) | 16 | 4
CS(=O)(=O)c1ccc(Cl)c(NC(=O)CN2CCN(Cc3ccc(Cl)s3)CC2)c1 | 20 | 2
CN(C)S(=O)(=O)c1cccc(COC(=O)c2cnccn2)c1 | -16 | 0
Cc1nn(-c2ccccc2)c2c1CC1(C(=O)NC(=O)c3ccccc31)C1CCCN21 (stereo not drawn) | 22 | 8
CC(=O)N1CCN(C(=O)c2cccc(S(=O)(=O)N(C)C(C)C)c2)CC1 | -2 | -4
COc1cc(C#N)ccc1OCC(=O)Nc1cccc2nsnc12 | 15 | -1
COc1ccc(N(Cc2nc(N)nc(N)n2)S(=O)(=O)c2cc(C)ccc2C)cc1 | 7 | -5
CN(C)C(=O)CSc1nnc2c(Cl)cc(Cl)cn12 | 8 | -2
CN(Cc1ccccc1)C(=O)CSc1nnc(-c2ccccc2F)n1N | 4 | 6
Cc1ccc(NC(=O)NC(=O)Cn2ccsc2=N)c(C)c1 | -2 | -8
C=CCn1c(-c2ccncc2)nn(CN2CCCC(C(=O)OCC)C2)c1=S (stereo not drawn) | 64 | 48
COC(CNC(=O)c1ccc2c(c1)C(=O)N(CCc1ccccc1)C2=O)OC | 10 | 10
Cc1ccc(/C=C/C(=O)Nc2ccc(-c3nnc4n3CCCCC4)cc2)o1 | 28 | 2
CCN(CC)S(=O)(=O)c1ccc2oc(SCc3cn4ccsc4n3)nc2c1 | 30 | 2
O=C(C1CCNCC1)N1CCCCC1 | 12 | 10

# Continued.
SMILES,BmaI1,BmaI1 counterscreen
COc1cc(C[C@@H](CO)[C@H](CO)Cc2ccc(O)c(OC)c2)ccc1O,66,38
O=C(Cn1cnnn1)Nc1nccs1,6,0
CC(Sc1nnc(-c2cccc(S(=O)(=O)N3CCCC3)c2)n1-c1ccccc1)C(N)=O (stereo not drawn),12,13
CCOC(=O)c1cncn1C(C)c1ccccc1 (stereo not drawn),1,2
O=C(c1cc(=O)[nH]c2ccccc12)N1CCCc2ccccc21,0,-8
OCCNCCOc1ccc(I)cc1,4,6
CO[C@H]1C=CO[C@@]2(C)Oc3c(C)c(O)c4c(O)c(c5c(c4c3C2=O)NC2(CCN(CC(C)C)CC2)N=5)=NC(=O)C(C)=CC=C[C@H](C)[C@H](O)[C@@H](C)[C@@H](O)[C@@H](C)[C@H](OC(C)=O)[C@@H]1C,-20,-24
COc1ccc(CCNC(=O)CN2CCCc3ccccc32)cc1OC,-36,-4
O=C(Nc1c(S(=O)(=O)c2ccccc2)c2nc3ccccc3nc2n1C1CCCCC1)c1ccco1,34,14
O=C(O)c1cncn1-c1ccc(F)cc1,40,2
Cc1nc(Cc2nnc(SCC(=O)NC(C)(C)C)o2)cs1,18,3
COc1cc2nc(N3CCN(C(=O)c4ccco4)CC3)nc(N)c2cc1OC,10,10
O=C(CC1(C(=O)O)CCCC1)NC1CC1,8,6
Cc1cc(N2CCN(C(=O)OC(C)(C)C)CC2)nc(C(C)C)n1,15,10
c1cncc(C2Nc3ccccc3-c3nc4ccccc4n32)c1 (stereo not drawn),2,0
CS(=O)(=O)N1Cc2ccccc2CC1C(=O)OCC(=O)c1ccc[nH]1 (stereo not drawn),16,4
O=C(COC(=O)c1ccco1)NC1CCCc2ccccc21 (stereo not drawn),-5,-6
Cc1ccc(S(=O)(=O)N2CCCCC2)cc1C(=O)c1nccn1C,0,-4
CC1(C)CC(NC2CCC(C#N)(c3ccccc3)CC2)CC(C)(C)N1 (stereo not drawn),7,2
N#Cc1ccccc1OCC(=O)N(Cc1ccccc1)C1C=CS(=O)(=O)C1 (stereo not drawn),12,-5
O=C(/C=C/c1ccc2c(c1)OCO2)NC1=NCCS1,2,5
CC(C)C(N)c1ccccc1 (stereo not drawn),1,2
CC1CCCCC1NC(=O)COC(=O)c1ccccc1NCCO (stereo not drawn),14,-2
Cc1ccc(-c2cc(C(F)(F)F)nn2-c2ccc(S(N)(=O)=O)cc2)cc1,7,12
CCN(CC(=O)NCc1ccc(F)cc1)C(=O)c1cc2ccccc2o1,0,-2
CCOC(=O)c1oc2ccccc2c1COC(=O)c1cccnc1SC,20,4
CC1Cc2ccccc2N1C(=O)CN(C)CC(=O)Nc1ccc(OC(F)(F)F)cc1 (stereo not drawn),4,2
CN(C)c1cccc(C(=O)OCc2cc(Cl)cc3c2OCOC3)c1,-2,-5
COC(=O)C1CC(O)CN1c1nc(-c2ccccc2)nc2ccccc12 (stereo not drawn),8,12
O=C(OC1CCOC1=O)c1cccnc1Nc1cccc(C(F)(F)F)c1 (stereo not drawn),13,12
O=C(CNC(=O)c1ccccc1)NCC1COc2ccccc2O1 (stereo not drawn),14,13
O=c1c2ccccc2[se]n1-c1ccccc1,100,64
O=C(O)COc1ccc2oc(=O)c3c(c2c1)CCC3,6,4
CSc1ccc(CN(C)CC(=O)NC2(C#N)CCCC2)cc1,-2,-8
O=C(Nc1cccc(-c2nc3ccccc3[nH]2)c1)C1CC(=O)N(Cc2ccco2)C1 (stereo not drawn),10,-5
CC1CCc2nc(NC(=O)NCCCN3CCOCC3)sc2C1 (stereo not drawn),4,8
Nc1ccc(/C=C/C(=O)O)cc1,44,26
CCc1ccc(C(=O)CSc2nnc(-c3nn(Cc4ccccc4)c(=O)c4ccccc34)o2)cc1,5,-1
NCCc1ccc(F)cc1,-1,-1
CCNC(=O)CSc1nc2ccccc2[nH]1,4,2
